Rango-impB inh: prevents formation of the Rango-importin beta complex; Q14974; Rango CFP/YFP FRET sensor + importin beta, 45 min; Potency, µM (series often up to 92.2 µM), inactives show top-dose inhibition of complex formation; hit rate 0.031% among 340,000; AID 540263; active = rising FRET ratio curve, often small or poorly fitted; inconclusive = mostly compound fluorescence or quenching in the first reads; inactive = flat curves in all reads;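 also: potency is read from the fitted curve at half-maximal effect; 0% = DMSO wells and 100% = buffer wells lacking importin beta; nearly all actives have a fitted effect of over 15% in size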
Target sequence (Q14974 whole entry, looked up): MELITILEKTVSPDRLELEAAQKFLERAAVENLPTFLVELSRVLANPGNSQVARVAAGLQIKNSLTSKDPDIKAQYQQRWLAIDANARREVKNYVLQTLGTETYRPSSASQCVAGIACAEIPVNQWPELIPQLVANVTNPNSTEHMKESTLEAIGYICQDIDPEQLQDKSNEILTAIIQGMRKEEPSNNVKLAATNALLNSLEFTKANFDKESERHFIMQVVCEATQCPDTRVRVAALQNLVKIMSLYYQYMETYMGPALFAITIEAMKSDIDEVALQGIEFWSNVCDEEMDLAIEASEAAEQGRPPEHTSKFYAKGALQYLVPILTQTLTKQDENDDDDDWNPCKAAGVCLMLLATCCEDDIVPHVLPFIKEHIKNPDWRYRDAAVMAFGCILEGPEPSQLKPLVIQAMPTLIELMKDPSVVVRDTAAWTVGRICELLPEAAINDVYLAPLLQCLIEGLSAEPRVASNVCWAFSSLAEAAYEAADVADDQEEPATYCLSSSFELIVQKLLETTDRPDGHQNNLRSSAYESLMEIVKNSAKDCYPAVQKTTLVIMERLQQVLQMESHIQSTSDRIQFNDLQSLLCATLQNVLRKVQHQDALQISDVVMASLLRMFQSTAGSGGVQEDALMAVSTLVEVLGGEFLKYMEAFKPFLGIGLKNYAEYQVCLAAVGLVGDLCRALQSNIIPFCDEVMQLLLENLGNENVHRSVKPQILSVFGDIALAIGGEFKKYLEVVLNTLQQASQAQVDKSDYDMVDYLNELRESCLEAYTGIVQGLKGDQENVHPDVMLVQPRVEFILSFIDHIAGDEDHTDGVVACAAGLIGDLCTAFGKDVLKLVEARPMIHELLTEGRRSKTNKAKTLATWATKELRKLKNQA
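FRET biosensor (snurportin 1 IBB flanked by EYFP and cerulean), 50 nM, with compound 5 min, then 0.125 microM importin beta in PBS, 1 mM DTT, 0.02% Tween-20, 0.1% BSA. CFP/YFP ratio read after 45 min at room temperature; pre-read flags interference.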
miR-21 reporter: miR-21 reporter, rising signal; Potency, µM (highest dose often 38.3 µM), for the others: top-dose reporter change, positive = more light; AID 2288; 340,000 tested, under 10 active; HeLa miR-21 FLuc reporter, luciferase, 48 h; active = well fitted rising curve with a large enough effect; inconclusive = small, poorly fitted or top-dose-only effect; inactive = no such curve, though single readings can be large or run the other way;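 also: % of control where 0% means no effect; miR-21 action dims this reporter so a rising signal means less miR-21 action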
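HeLa cells stably expressing CMV-driven firefly luciferase with a downstream miR-21 binding sequence, endogenously expressing miR-21, were treated with titrations (up to about 40uM final) for 48 hours at 37 degree Celsius. Luciferase luminescence was read after lysis.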
GLA inh pH 4.5: alpha-galactosidase A (human) inhibition, pH 4.5; P06280; purified enzyme, 4-MU-alpha-Gal fluorescence, pH 4.5; activity change, negative = inhibition, % at 105 µM; 230,000 tested, under 10 active; AID 1467; inconclusive = small, poorly fitted or top-dose-only inhibition, or a rising curve; inactive = flat fitted curve, though single readings scatter; no compound was filed as active;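 also: 0% = full activity with enzyme and -100% = basal without enzyme; dose as in the result columns while the protocol names 77 µM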
Rango release inh: prevents RanGTP from dissociating the Rango-importin beta complex. O95149+P62826. Potency, µM (doses to about 46.1 µM), inactives show top-dose activity change, negative = inhibition. Biochemical FRET Rango-importin beta, RanGTP-induced dissociation. hit rate 0.071% among 340,000. AID 540253; active means falling FRET ratio curve, often poorly fitted, with flat reads before Ran was added; inconclusive means other falling curves, or compound fluorescence or quenching; inactive means flat or rising ratio curve;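 also: potency is read from the fitted curve at half-maximal effect; % of control where 0% means no effect; nearly all actives have a fitted effect of over 45% in size; -100% = wells without RanGTP and RCC1; the record marks most hits as doubtful in a second field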
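Compounds preincubate 5 min with complex of recombinant Rango and importin beta in PBS with 1 mM DTT. Ran (0.6 uM) loaded with 2 mM GTP plus 0.2 uM RCC1 starts dissociation; FRET is recorded 45 min later.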
An asterisk follows results filed as active; ? = inconclusive; · = no result given; & = joins results of further samples.

No.	Structure	Rango-impB inh	miR-21 reporter	GLA inh pH 4.5	Rango release inh
1	O=C(CN1C(=O)NC(c2ccc(F)cc2)C1=O)Nc1ccc2c(c1)OCCO2 (stereo unspecified)	-4.3%	·	·	33%
2	NS(=O)(=O)c1cccc(NC(=O)c2cccc(-c3ccc(O)cc3)c2)c1	3.3%	-4%	·	5%
3	O=C(Nc1cc(Cl)ccc1C(=O)O)c1ccc(CN2C(=O)c3ccccc3C2=O)cc1	3.1%	·	·	-4%
4	O=C(O)C1(c2ccccc2)CCN(S(=O)(=O)c2ccc(Br)cc2)CC1	3.9%	12%	·	3%
5	C/C(N)=C(/C#N)C(=O)COC(=O)CC1CCCC1	-3.7%	-9%	9	-6%
6	O=C(COC(=O)c1ccco1)Nc1nnc(-c2ccccc2)o1	3.0%	·	·	10%
7	O=C(O)C(=O)/C(=C\c1ccc(Cl)cc1)c1ccc2ccccc2n1	-2.3%	-59%	12	?
8	O=C(CCN1CCN(CCO)CC1)Nc1ccc(F)c(F)c1	2.6%	-5%	15	?
9	Cc1nn(CCC(N)=S)c2nc(-c3cccs3)cc(C(F)(F)F)c12	-2.5%	1%	7	0%
10	Cc1c(CCOC(=O)c2cc([N+](=O)[O-])cc([N+](=O)[O-])c2)sc[n+]1CCCCS(=O)(=O)[O-]	-2.2%	-1%	-4	14%
11	O=C(NC1CCCC1)C(c1ccc(Cl)cc1)N1CCOCC1 (stereo unspecified)	-0.7%	-1%	2	-2%
12	O=C1CCCCN1CCCC(=O)N1CCCC(Nc2ccc(F)cc2)C1 (stereo unspecified)	-0.1%	-3%	·	-13%
13	Cc1ccc(/C=C/C(=O)Nc2sc3c(c2C#N)CCCC3)o1	?	-8%	4	-5%
14	Cc1ccccc1/C=C1\CCCc2ccccc2C1=O	-2.1%	-58%	-11	10%
15	CCOc1cc(NC(=S)NCc2ccccc2)c(OCC)cc1NC(=O)C(C)C	-1.2%	1%	·	-6%
16	O=C(NCc1nnc(SCC(=O)N2CCCC2)o1)c1ccc(F)cc1	-1.9%	-1%	·	-7%
17	CCOC(=O)N1CCC(NC(=O)c2ccc3c(c2)ncn3C2CCCC2)CC1	0.9%	-14%	0	0%
18	CCN(C(=O)COC(=O)c1ccc(Cl)cc1N)C1CCCCC1	-1.4%	-10%	-2	-10%
19	O=C(CCN1C(=O)C2C3C=CC(C3)C2C1=O)Nc1ccccc1 (stereo unspecified)	0.9%	0%	7	51%
20	Cc1ccc(C(=O)C2=C(O)C(=O)N(Cc3ccco3)C2c2cccc(Cl)c2)o1 (stereo unspecified)	-2.1%	-3%	·	-4%
21	O=C(CNCc1cccs1)Nc1ccc(OC(F)(F)F)cc1	-0.6%	-39%	·	19%
22	CC(=O)c1nn(-c2cccc(C(F)(F)F)c2)c(=O)[nH]c1=O	?	-19%	·	-13%
23	CN1CCN(C(=O)c2ccccc2NC(=O)c2sc3ccccc3c2Cl)CC1	0.2%	-19%	·	3%
24	COc1ccc(Br)cc1C(=O)Nc1cc(C)cc(C)c1	-4.5%	-2%	2	-3%
25	O=C1CC(N2CCC(c3nc4ccccc4o3)CC2)C(=O)N1 (stereo unspecified)	0.1%	-1%	17	-6%
26	COc1cc(C2=NOC(C(=O)Nc3ccc(C)cc3)C2)cc(OC)c1OC (stereo unspecified)	-2.7%	-1%	-10	-3%
27	CC(=O)c1ccc(S(=O)(=O)N2CCN(CC(=O)Nc3ccnn3C3CCCC3)CC2)cc1	3.1%	·	·	-10%
28	C=C(C)Cn1c(SCC(=O)O)nnc1-c1ccccc1	1.7%	1%	5	0%
29	CCS(=O)(=O)NCc1cn2ccsc2n1	-2.2%	-2%	3	-7%
30	Cc1nn(CC(=O)NCCC2=CCCCC2)c(C)c1S(=O)(=O)N(C)C	4.1%	·	·	0%
31	Cc1nn(-c2ccccc2)c2sc(C(=O)OCc3nnc(-c4ccccc4)o3)cc12	-1.8%	-9%	13	-6%
32	Cc1cccc(N2CC(C(=O)Nc3ccc4c(c3)OCO4)CC2=O)c1C (stereo unspecified)	1.5%	-3%	3	-4%
33	Cc1cccc(C)c1NC(=O)C(c1ccccc1)N1CC(=O)Nc2ccccc21 (stereo unspecified)	?	-10%	0	-3%
34	Cc1ccc(O)c(CNc2cnc3ccccc3c2)c1	0.0%	-22%	·	2%
35	Cc1cc(C)n2nc(N)c(N=Nc3cccc(Cl)c3)c2n1	1.7%	-34%	0	18%
36	CS(=O)(=O)N(CC(=O)N1CCOCC1)c1cccc(F)c1	-0.3%	2%	·	-4%
37	O=C(Nc1ccc(SC(F)F)cc1)c1ccccc1F	-1.6%	-49%	3	-3%
38	CCOC(=O)c1sc(-c2ccccc2)nc1C	0.3%	-25%	8	4%
39	C/C(=N/NC(=O)c1cccs1)c1ccc(N2CCOCC2)cc1	2.6%	-73%	5	10%
40	OCC[C@@H]1C[C@@H](O)[C@H](O)[C@]2(CCCc3ccccc3O2)O1	-6.3%	0%	·	14%
41	Cc1cc(C)c2[nH]c(=O)c(CN(CC3CCCO3)C(=S)Nc3ccccc3)cc2c1 (stereo unspecified)	0.8%	-5%	-1	-8%
42	CC(C)COc1ccc(C(=O)Nc2ccc(SC(F)F)cc2)cc1	?	-53%	-6	-19%
43	Cc1ccc(OCCOC(=O)Nc2ccccc2)cc1	0.5%	-21%	0	-8%
44	COCCn1nnnc1C(C(C)C)N1CCC(Cc2ccccc2)CC1 (stereo unspecified)	5.3%	-3%	-1	0%
45	COC(=O)c1[nH]c2ccc(C)cc2c1NC(=O)c1ccccc1[N+](=O)[O-]	-2.3%	1%	-11	-11%
46	Cc1ccc(S(=O)(=O)N2CCN(Cc3nnc(-c4c(-c5ccccc5)noc4C)o3)CC2)cc1	1.7%	·	·	-18%
47	COc1c2ccc(C(=O)NCc3cc(C(F)(F)F)cc(C(F)(F)F)c3)cc2nn1C	0.3%	16%	1	-9%
48	CC(C)CCNC(=O)Cc1c(C(=O)O)[nH]c2ccc(Cl)cc12	5.9%	-1%	0	13%
49	CCc1nn2c(=O)cc(COC(=O)c3cc(Cl)c(OC)c(OC)c3)nc2s1	0.5%	·	·	1%
50	CCOC(=O)N1CCN(C(=O)CCc2ccccc2)CC1	0.4%	-1%	·	-3%
51	COc1ccc(C(=O)NNC(=O)c2ccc(C)cc2)cc1S(=O)(=O)N1CCCC1	0.1%	-3%	0	-10%
52	CCOC(=O)CN(C(=O)Cn1nnc2ccccc21)C(C(=O)NCCOC)c1ccccc1 (stereo unspecified)	-0.3%	2%	1	18%
53	CCOc1cc(CNCCSc2nnnn2C)cc(Br)c1OCc1ccccc1F	4.6%	23%	-1	15%
54	CCOC(=O)N1CCN(C(=O)C2CCN(C(=O)Nc3ccccc3)CC2)CC1	0.8%	·	·	6%
55	COc1ccccc1C1=Nn2c(nnc2C2CCCCC2)SC1	1.9%	-13%	-3	-1%
56	O=C(Cn1nc(-c2ccccc2)ccc1=O)N1CCOCC1	1.1%	·	·	0%
57	Cc1cc2oc3cc(NCCC4CCCN4C)ccc3c(=O)c2cc1C (stereo unspecified)	?	·	·	?
58	CCCn1c(N)c(N(CCOC)C(=O)c2c(CC)noc2C)c(=O)[nH]c1=O	-1.0%	·	·	18%
59	Cc1occc1C(=O)Nc1cnn(CCCC(=O)O)c1	-0.5%	0%	·	-5%
60	CCC(=O)c1ccc(OCc2cn(CC(=O)c3ccc(O)cc3)nn2)cc1	5.8%	·	·	-6%

(cont.)
No.	Structure	Rango-impB inh	miR-21 reporter	GLA inh pH 4.5	Rango release inh
61	CN(CC(=O)Nc1ccc(Cl)c(C(F)(F)F)c1)C(=O)c1cccc(N2C(=O)CCC2=O)c1	0.1%	·	·	-3%
62	O=C1Nc2ccccc2C(=O)N2C[C@@H](O)C[C@H]12	-1.3%	-7%	·	-6%
63	C=CCNC(=O)C1COc2ccccc2O1 (stereo unspecified)	3.8%	-8%	-7	1%
64	CCC(Oc1ccccc1)C(=O)OCC(=O)Nc1sccc1C(N)=O (stereo unspecified)	?	·	·	-24%
65	O=C(CSc1nccn(-c2ccc3c(c2)OCCO3)c1=O)Nc1ccccc1	1.0%	·	·	-4%
66	Cc1cc(Cl)n2ncc(-c3ccccc3)c2n1	5.0%	-40%	-7	-9%
67	Cc1cc(N2CCN(C(=O)c3ccco3)CC2)n2nc(C)nc2n1	-0.2%	1%	4	-15%
68	O=C(NCCN1CCNC1=O)C1CCC(=O)N(CCc2ccccc2)C1 (stereo unspecified)	-0.9%	-4%	·	8%
69	O=C(CSc1nc2c(cnn2-c2ccccc2)c(=O)[nH]1)c1ccc(Cl)cc1	-3.3%	-7%	2	11%
70	Cc1cc(NC(=O)CSc2nccn2C)no1	0.1%	-3%	0	1%
71	CCCCCC(=O)N1CCN(S(=O)(=O)c2ccc3c(c2)OCCCO3)CC1	3.5%	·	·	0%
72	CCn1c2ccccc2c2cc(NC(=O)c3ccccc3-c3ccccc3C(=O)O)ccc21	1.7%	-5%	-6	14%
73	O=C(Cn1nnc(-c2cccs2)n1)OC1CCCCC1	1.5%	2%	-7	24%
74	CC1(OC(=O)CCc2ccccc2)C(=O)C=C2C=C(c3ccc(C#N)cc3)N(c3ccccc3)C=C2C1=O (stereo unspecified)	?	-1%	6&0	?
75	CCn1c(SCC(=O)O)nnc1-c1ccccc1OC	1.3%	-66%	-13	4%
76	C[C@H](CCC(=O)O)[C@H]1CC[C@H]2[C@@H]3CC[C@@H]4C[C@H](O)CC[C@]4(C)[C@H]3C[C@H](O)[C@]12C	?	·	·	-5%&-10%&-1%
77	CC(C)c1ccc(S(=O)(=O)N2CCN(C(=O)CN3C(=O)NC(C)(c4ccccc4)C3=O)CC2)cc1 (stereo unspecified)	-2.1%	·	·	1%
78	O=C1CC(Cc2ccccc2)C(=O)N1CCc1ccc2c(c1)OCO2 (stereo unspecified)	-0.4%	-9%	-2	-5%
79	O=C1c2ccc(-c3ccc(Cl)c(C(F)(F)F)c3)cc2S(=O)(=O)c2cccc(C(=O)N3CCN(c4ccc(Cl)cn4)CC3)c21	-0.7%	·	·	30%
80	CCN(CC)S(=O)(=O)c1ccc2[nH]c(=O)cc(C(=O)NCC(c3ccco3)N3CCCC3)c2c1 (stereo unspecified)	-0.9%	·	·	-15%
81	COCc1ccc(CN2CCCC(C(=O)Nc3ccccc3-c3ccc(OC)cc3)C2)o1 (stereo unspecified)	0.7%	0%	·	-4%
82	Cc1cc(NC(=O)CSc2nc3c(c(=O)n2-c2ccc(Cl)cc2)SCC3)no1	-0.3%	·	·	1%
83	CCn1cc(C(=O)OCC(=O)Nc2cccc(S(=O)(=O)N3CCOCC3)c2)c(=O)c2ccc(C)nc21	1.3%	-7%	8	-6%
84	O=C(Nc1ncccn1)c1cccc(Cl)c1	-1.1%	·	·	-1%
85	Cc1ccc(NCc2nnc(SCC(=O)NCCc3ccccc3)n2C)cc1	1.1%	5%	9	-3%
86	NNC(=O)CN1C(c2ccc(Cl)cc2)=Nc2ccc(Br)cc2C1c1ccccc1 (stereo unspecified)	-0.8%	-1%	-9	-5%
87	CC(C)Cn1c(=O)c2ccccc2n2c(CCC(=O)NC3CCN(Cc4ccccc4)CC3)nnc12	-3.2%	3%	·	9%
88	Cc1nnc(NC(=O)c2oc3ccccc3c2C)s1	-5.4%	-49%	·	5%
89	COc1cccc(OCCCn2ccnc2)c1	4.5%	1%	·	13%
90	COC(=O)c1ccc(CNC(=O)c2ccc(S(=O)(=O)N3CCCCCC3)cc2)cc1	0.6%	·	·	1%
91	COCCN(C(=O)CSc1nc2ccccc2o1)c1c(N)n(Cc2ccccc2)c(=O)[nH]c1=O	1.4%	·	·	15%
92	COc1ccccc1Nc1ccc2nonc2c1[N+](=O)[O-]	-0.4%	-4%	·	-1%
93	Fc1ccc(OCc2nc(-c3ccncc3)n[nH]2)cc1	-1.1%	-4%	5	-12%
94	COc1ccc(CN(C)CCCn2cnc(C(=O)Nc3ccc(C)c(C)c3)n2)cc1OC	1.2%	·	·	7%

High-throughput results deposited in PubChem BioAssay by National Center for Advancing Translational Sciences (NCATS).

These rows are one share of the data; count on the stated rates, not on these rows.
